Screens as filed in PubChem BioAssay.
Sa helicase inh = inhibitors of S. aureus replicative helicase, primary screen, biochemical, fluorescence unwinding readout | AID 485395, 2010 | purified S. aureus helicase, fluorescence unwinding assay; about half of the hits fall short of the stated cut | inhibition, %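 (tested at about 80 µM)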 | actives 0.05% (n = 120,000) | replicative DNA helicase (DnaC/DnaB), Staphylococcus aureus;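 active = both duplicates at 50% or more, or one of them with a favoured structure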;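 also: 0% = mean of negative control wells and 100% = mean of positive control wells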
MgrA DNA FP = S. aureus MgrA activity modulators, primary screen, biochemical, S. aureus Newman, fluorescence polarization | MgrA-DNA binding | inhibition, %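 (about 10 µg/mL by stock and volumes)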 | actives 0.13% (n = 84,000) | AID 602314, 2012;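 active = above 50% in either of two replicates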;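 also: 0% = protein plus DNA without compound and 100% = DNA alone without protein; higher means less MgrA bound to DNA so lower polarization; one replicate is shown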
Numbers without * were called inactive; . = not tested or not shown; & = joins results of further samples. A portion of the library; rates above refer to the full screens.

SMILES | Sa helicase inh | MgrA DNA FP
CC(=O)Nc1nc2ccc(S(=O)(=O)N3CCOCC3)cc2s1 | 7 | -0.1
Cc1ccc(-c2nc(NC(=O)c3snnc3C)sc2C)cc1Cl | . | -1.6
O=C(Cn1ncc(Cl)c(Cl)c1=O)N1CCCC1c1ccc2c(c1)OCCCO2 (stereo not drawn) | 12 | .
Cc1c(C(=O)N2CCN(c3ccccc3)CC2)oc2c1C(=O)CCC2 | 11 | 4.5
O=C1C=C(N2CCOCC2)C(=O)c2ccccc21 | -5 | 0.2
O=C(O)CN(CCCc1ccccc1)CC(=O)O | -4 | .
CCOc1ccc2c(c1)sc(N)[n+]2Cc1cc(C)cc2cccnc12 | -24 | 0.2
COC(=O)c1cc(S(=O)(=O)N2CC(C)CC(C)C2)c[nH]1 (stereo not drawn) | -16 | .
COc1ccccc1C(=O)NCCN1CCCC1 | 10 | 0.4
COCc1cc(=O)[nH]c(SCC(=O)C(C)(C)C)n1 | . | -0.5
Cn1nccc1NC(=O)Nc1ccccc1 | . | -0.7
O=S(=O)(Cc1noc(-c2ccccc2)n1)c1ccc(F)cc1 | . | 3.3
N#Cc1c(N)n(CCNS(=O)(=O)c2ccccc2)c2nc3ccccc3nc12 | -113 | .
N#C/C(=C\N1CCCCC1)S(=O)(=O)c1ccc(Cl)cc1 | . | 0.1
COc1ccc2[nH]cc(CCNC(C)=O)c2c1 | -14 | -1.1&2.4
N#CN=C(Oc1ccccc1)Oc1ccccc1 | . | -1.1
O=C1CCCN1CCP(=O)(O)CN1CCCCC1 | -9 | 0.1
O=C(COc1ccccc1F)Nc1nc(-c2cccs2)c(NC(=O)c2ccccc2)s1 | 11 | .
O=C(CCOc1ccccc1)N1CCN(c2nc3ccccc3s2)CC1 | -8 | .
O=C(c1ccccc1)c1ccncc1 | 3 | .

By substructure: those above containing a cyano group (3)
SMILES | Sa helicase inh | MgrA DNA FP
N#Cc1c(N)n(CCNS(=O)(=O)c2ccccc2)c2nc3ccccc3nc12 | -113 | .
N#C/C(=C\N1CCCCC1)S(=O)(=O)c1ccc(Cl)cc1 | . | 0.1
N#CN=C(Oc1ccccc1)Oc1ccccc1 | . | -1.1

Further results.
SMILES | Sa helicase inh | MgrA DNA FP
Cc1ccc(C(=O)C(C)OC(=O)c2cccs2)cc1 (stereo not drawn) | -17 | .
CCN(CC)S(=O)(=O)c1ccc(C(=O)N2CCN(C3=NS(=O)(=O)c4ccccc43)CC2)cc1 | 12 | -4.0
Cc1c2cnn(CC(=O)NC3CCCc4ccccc43)c(=O)c2c(C)n1Cc1ccc(Cl)cc1 (stereo not drawn) | 0 | 1.0
CCn1c(-c2ccccc2)ccc1C(O)C(F)(F)F (stereo not drawn) | -12 | 0.0
O=c1c2c3c(sc2nc2n1CCCCC2)/C(=N/O)CCC3 | 29 | .
O=C(CSc1nc2ccccc2c(=O)n1CCCO)c1ccc2c(c1)OCO2 | -10 | .
COc1ccc(CCNC(=O)C(c2ccccc2)c2ccccc2)cc1OC | 4 | -1.6
CCN(CC)CCN1C2=C(C(=O)CC(C)(C)C2)C(c2cccc(F)c2)C2=C1CC(C)(C)CC2=O | 10 | 4.2
Cc1nnc(SCc2cc(=O)oc3cc(O)ccc23)n1Cc1ccccc1 | -8 | .
Cc1ccc(SCc2ccc(C(=O)Nc3ccc(C)cc3O)cc2)cc1 | . | -0.9
COC(=O)c1c(NC(=O)c2nc3ccccc3s2)sc2c1CCN(C(C)=O)C2 | 9 | .
Cc1sc2ncn(CC(=O)NCCC3=CCCCC3)c(=O)c2c1S(=O)(=O)N1CCCCC1 | -3 | .
COc1ccc(CN(Cc2nc3ccccc3c(=O)[nH]2)C(=O)NCc2ccccc2)cc1 | 13 | -2.8
O=C1/C(=C/c2cc(Br)ccc2OCc2ccccc2)Sc2ccccc21 | . | 0.5
Cc1cc(C)n(-c2ccc(SCC(=O)Nc3ccc(Cl)cc3)nn2)n1 | . | -0.2
O=C(OCc1nc2scc(-c3ccccc3)c2c(=O)[nH]1)c1cccc(-n2cnnn2)c1 | -8 | .
COC(=O)/C(=C\N(C)C)S(=O)(=O)c1cc(C)c(Cl)cc1C | 3 | .
Cc1ccc(C(=O)Oc2cc(C)nn2Cc2ccccc2)cc1 | -4 | -1.3
O=C(CCN1C(=O)COc2ccccc21)Nc1ccc2c(c1)OCCCO2 | -3 | .
Fc1ccc(C=Nc2ccc(I)cc2)cc1 | 4 | -2.5
c1ccc(-c2noc(C34CC5CC(CC(C5)C3)C4)n2)cc1 | 0 | 2.7
CCc1cc(=O)oc2c(C)c3occ(-c4ccc(Cl)cc4)c3cc12 | 5 | 2.9
O=c1c(C2SCCS2)coc2ccccc12 | . | -1.6
Cc1cc(S(=O)(=O)c2ccc(C(=O)O)cc2[N+](=O)[O-])c(C)cc1Cl | . | 0.4
COCCN=C1SC(C(=O)Nc2cccc(C#N)c2)C(N)=C1C(=O)N1CCN(C)CC1 (stereo not drawn) | 11 | .
CCCN1CCN(C(=O)c2cn(C)c(=O)c3cc(OC)c(OC)cc23)CC1 | 36 | .
CCOC(=O)c1noc2c1COc1ccccc1-2 | -18 | .
O=C1c2ccccc2C(=O)N1CCSc1ncnc2c1cnn2-c1ccccc1 | 16 | .
O=C(c1ccccc1)N1CCN(C2CCCCC2)CC1 | -11 | 1.2
Cc1nc(SCc2ccc(C#N)cc2)c(C#N)c(-c2ccco2)c1C(=O)N(C)C | -13 | .
O=C(NC1(C(F)(F)F)Oc2ccc(Cl)cc2O1)N1CCCCC1 (stereo not drawn) | 7 | -2.5
NC(=O)CC(=O)c1ccccc1 | . | 1.7
Cc1cc(C)c2nc(SCC#N)cc(C)c2c1 | 21 | .
Cc1ccc(C)c2[nH]c(=O)c(CCNC(=O)CC(C)(C)C)cc12 | -3 | .
Cc1cc(C(=O)CN2C(=O)c3ccccc3C2=O)ccc1Cl | . | 2.3
CCOC(=O)c1c(C)n(-c2ccccc2)c2ccc(OC(=O)c3cccs3)cc12 | . | -0.8
N#CC1=C(SCC(=O)Nc2ccc(Br)cc2)NC(=O)CC1c1ccc(F)cc1 (stereo not drawn) | . | -0.1
CC(C)(C)S(=O)(=O)c1ccc(S(=O)(=O)C(C)(C)C)cc1 | 6 | -1.9
COc1cc(C#N)ccc1OCC(=O)N(C)CC(=O)Nc1ccc(F)cc1 | -5 | .
CCCc1nc2ccccc2c(NC(=O)CN(CC)CC)c1CC | 3 | -3.9
CCc1ccc(OC(=O)c2cncc(Br)c2)cc1 | -1 | .
CC(C)N1C(=O)S/C(=C/c2ccc(Sc3nc4ccccc4[nH]3)o2)C1=O | 3 | 1.5
COCCN1C=C(C(=O)OC)C(c2cccs2)C(C(=O)OC)=C1 | 15 | -1.2
O=C(Cn1ccc2ccccc2c1=O)NCC(=O)NC1CCCCCC1 | 12 | 1.5
Cc1cc(C(F)(F)F)nc(NCCc2ccccc2)n1 | 10 | -1.5
CC1CC(C)CN(C(=O)Cn2ncc3ccc(Cl)cc32)C1 (stereo not drawn) | 21 | .
COc1ccc(NC(=O)CCc2cc(OC)c(OC)c(OC)c2)cc1 | 9 | -0.6
c1ccc(N2CCN(c3ncccn3)CC2)cc1 | . | -1.4
CCNc1c(N)c(=O)oc2ccccc12 | 16 | -0.8
CCOc1ccc(C(=O)Nc2ccc3oc(-c4ccc(F)cc4)nc3c2)cc1[N+](=O)[O-] | . | 0.9
O=C1c2ccccc2C(=O)N1Cc1ccc2c(c1)OCO2 | 28 | .
CC1(C)Cc2c(c(-c3ccccc3)[nH]c(=O)c2C#N)CO1 | 2 | -0.9
CN1CCN(C(CNC(=O)NC(C)(C)C)c2ccc(F)cc2)CC1 (stereo not drawn) | -8 | .
FC(F)(F)c1cccc(OCc2noc(-c3ccsc3)n2)c1 | . | 1.7
CC(C)(C)c1ccc(-c2nnc(SCC(=O)c3ccccc3)o2)cc1 | . | 1.5
COC(=O)c1ccc(CO/N=C(\N)c2ccc(C(C)(C)C)cc2)o1 | 22 | .
COc1ccccc1NC(=O)c1cc(-c2ccc(C)o2)nc2ccccc12 | -19 | .
COc1cccc(/C=N/Nc2ncccc2[N+](=O)[O-])c1OC | . | 2.4
Cc1nc(SCC(=O)c2cc3ccccc3oc2=O)c(C#N)c(C)c1C | . | 1.9
COc1ccc(OC)c(-c2nc(NC(C)=O)c3c(=O)oc4ccccc4c3n2)c1 | -10 | .

(continued)
SMILES | Sa helicase inh | MgrA DNA FP
ON(Cc1cccc(C(F)(F)F)c1)Cc1cccc(C(F)(F)F)c1 | . | 0.8
CCOc1ccccc1C(=O)NCC(=O)Nc1ccc2c(c1)OCO2 | -11 | .
Cc1ccc(NC(=O)/C(C#N)=C/N(C)C)cc1Cl | . | -3.9
O=C(NCCCc1ccccc1)Nc1c[nH]c2ccccc2c1=O | 7 | 1.1
Cc1nc2ccccc2c(=O)n1CC(C)C | 13 | -2.4
O=C(O)c1cccc(N2C(=O)CCC2=O)c1 | 8 | -5.0
COCc1cc(C)nc2sc3c(=O)n(-c4ccccc4)nnc3c12 | -3 | 1.1
O=C1C(=Cc2ccc(N3CCCC3)cc2)C(=O)c2ccccc21 | -86 | 14
COc1cc2c(C#N)c(N3CCCCC3)nc(N)c2c(N)n1 | -29 | .
O/N=C/c1ccc(C#Cc2ccccc2)cc1 | . | 0.2
CSc1nsc(SC)c1C(=O)O | . | -2.5
COc1ccccc1NC(=O)CN(Cc1ccco1)C(=O)c1ccc(Cl)nc1 | -3 | .
O=S(=O)(/N=C/c1c(O)ccc2ccccc12)c1cccs1 | -25 | .
Cc1ccc2c(c1)N(CC(=O)N1CCCCC1C)C(=O)CO2 (stereo not drawn) | 7 | -1.4
Cc1c(NC(=O)[C@@H](NC(N)=O)C(C)C)c(=O)n(-c2ccccc2)n1C | 8 | .
FC(F)(F)c1cc(-n2nncc2-c2ccccc2)cc(C(F)(F)F)c1 | . | -1.8
CSCCNC(=O)c1c(-c2c(Cl)cccc2Cl)noc1C | . | -0.1
Fc1ccc(Nc2c(-c3ccccc3)nc3ccccn23)cc1 | 12 | 0.5
O=C(Oc1ccccc1)c1c(-c2ccccc2)nnc2ccccc12 | . | -1.5
CCN(CC)c1ccc(/C=c2\sc3n(c2=O)C(c2ccc(OC)cc2OC)C(C(C)=O)=C(C)N=3)c(OC)c1 (stereo not drawn) | . | -2.9
O=C(COc1ccccc1)Nc1nnc(-c2ccc(Cl)cc2)o1 | 20 | .
Cc1ccc(SCCC(=O)NN)cc1 | 30 | .
Cc1c(NC(=O)CCN2C(=O)S/C(=C\c3ccc(Cl)cc3)C2=O)c(=O)n(-c2ccccc2)n1C | . | -1.1
CN1C(=O)CSc2ccc(NC(=O)Nc3cccnc3)cc21 | 19 | .
Nc1cc(C(F)(F)F)ccc1N1CCOCC1 | -5 | 1.2
COc1ccc(CN2CCCC(C(=O)N3CCCC3)C2)c(OC)c1OC (stereo not drawn) | -9 | .
CCOC(=O)c1sc(N)c(C#N)c1CSc1ncnc2sc(CC)cc12 | -133 | .
COC(=O)c1ccc(-c2ccccn2)s1 | 7 | .
COc1ccc(-n2c(O)c(C=NCC(c3ccco3)N3CCCC3)c3ccccc3c2=O)cc1OC (stereo not drawn) | 3 | .
O=[N+]([O-])c1cccnc1Sc1ncc2ccccn12 | . | -2.6
Cc1ccc(-c2noc(CCCC(=O)N(C)C)n2)cc1 | -24 | .
CCc1cc2c(=O)c(-c3cscn3)coc2c(CN(C)C)c1O | -4 | .
COc1cccc(OCC(=O)Oc2ccc(C(=O)c3ccccc3)cc2)c1 | -8 | .
c1ccc(OCCCCN2CCCCC2)cc1 | . | 0.8
Cn1c(=O)oc2cc(S(=O)(=O)Nc3ccccc3)ccc21 | 11 | 1.1
CN(C)C(=O)c1ccc(C(C)(C)C)cc1 | . | -2.3
COc1ccc(-n2c(O)c(C=NCc3ccccc3)c3ccccc3c2=O)cc1 | 5 | -0.5
Cn1nccc1C(=O)NCCN1C(=O)OC2(CCCCC2)C1(C)O (stereo not drawn) | 6 | -1.1
CC(=O)OC1CC2CCC1N(Cc1ccccc1)C2=O (stereo not drawn) | . | -2.2
O=C1CC(Sc2ccc(Cl)cc2)C(=O)N1Cc1ccncc1 (stereo not drawn) | . | -1.1
CCCN(C(=O)c1coc(=O)c2ccccc12)c1cccc(C)c1 | 31 | .

Gathered by group: the entries above containing fluorine (16)
SMILES | Sa helicase inh | MgrA DNA FP
O=S(=O)(Cc1noc(-c2ccccc2)n1)c1ccc(F)cc1 | . | 3.3
O=C(COc1ccccc1F)Nc1nc(-c2cccs2)c(NC(=O)c2ccccc2)s1 | 11 | .
CCn1c(-c2ccccc2)ccc1C(O)C(F)(F)F (stereo not drawn) | -12 | 0.0
CCN(CC)CCN1C2=C(C(=O)CC(C)(C)C2)C(c2cccc(F)c2)C2=C1CC(C)(C)CC2=O | 10 | 4.2
Fc1ccc(C=Nc2ccc(I)cc2)cc1 | 4 | -2.5
O=C(NC1(C(F)(F)F)Oc2ccc(Cl)cc2O1)N1CCCCC1 (stereo not drawn) | 7 | -2.5
N#CC1=C(SCC(=O)Nc2ccc(Br)cc2)NC(=O)CC1c1ccc(F)cc1 (stereo not drawn) | . | -0.1
COc1cc(C#N)ccc1OCC(=O)N(C)CC(=O)Nc1ccc(F)cc1 | -5 | .
Cc1cc(C(F)(F)F)nc(NCCc2ccccc2)n1 | 10 | -1.5
CCOc1ccc(C(=O)Nc2ccc3oc(-c4ccc(F)cc4)nc3c2)cc1[N+](=O)[O-] | . | 0.9
CN1CCN(C(CNC(=O)NC(C)(C)C)c2ccc(F)cc2)CC1 (stereo not drawn) | -8 | .
FC(F)(F)c1cccc(OCc2noc(-c3ccsc3)n2)c1 | . | 1.7
ON(Cc1cccc(C(F)(F)F)c1)Cc1cccc(C(F)(F)F)c1 | . | 0.8
FC(F)(F)c1cc(-n2nncc2-c2ccccc2)cc(C(F)(F)F)c1 | . | -1.8
Fc1ccc(Nc2c(-c3ccccc3)nc3ccccn23)cc1 | 12 | 0.5
Nc1cc(C(F)(F)F)ccc1N1CCOCC1 | -5 | 1.2
